Measles inh: inhibitors of measles virus growth in infected cells. infected Vero cells, GFP fluorescence, 64 h; stronger effect = lower value. z-score (concentration not given with the values). hit rate 0.1% among 33,000. AID 745;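 active = z-score under -3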;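 also: score is relative to mean and SD of the compound wells of a plate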
* = called active by the depositor.

item	Measles inh	Compound
1	-1.2	CCOc1cc2c(cc1OCC)C(c1ccc(Br)cc1)OC(=O)C2 (stereo not drawn)
2	0.41	O=C(CCN1C(=O)COc2ccccc21)NCCCN1CCCC1
3	-0.24	COc1ccc(C2=NN(c3nc(-c4ccc(OC)c(F)c4)cs3)C(c3ccco3)C2)cc1 (stereo not drawn)
4	0.66	O=C(NCCCN1CCN(c2ccc(F)cc2)CC1)c1cccn2c(=O)c3ccccc3nc12
5	-0.45	O=C(Oc1ccc(OCc2ccccc2)cc1)c1ccccc1
6	0.04	CCCCNC(=O)C1CCN(C(=O)C2CCN(S(=O)(=O)c3ccc(C)cc3)CC2)CC1
7	-0.24	O=C(CSC1=Nc2ccccc2C2=NC(Cc3ccccc3)C(=O)N12)c1ccc(Cl)cc1 (stereo not drawn)
8	-0.73	CCOC(=O)C1=C(C)Nc2nnnn2C1c1ccc(OCc2ccc(C)cc2)cc1 (stereo not drawn)
9	-0.06	O=C(Nc1ncc([N+](=O)[O-])s1)c1cccc(Br)c1
10	-0.65	Cc1ccc(S(=O)(=O)n2c([N+](=O)[O-])cnc2C)cc1C
11	-0.46	CCc1cc2c(ncn3cnnc23)s1
12	-1.4	CCC1=NN(S(=O)(=O)c2ccc(C)cc2)C(O)(C(F)(F)F)C1 (stereo not drawn)
13	-1.5	Cc1ccc(C2CC(c3ccc(NS(C)(=O)=O)cc3)=NN2C(=O)C2CCCCC2)cc1 (stereo not drawn)
14	0.53	CCOc1ccc(C=Nc2cc([N+](=O)[O-])ccc2C)c(O)c1
15	1	CC1=Nc2cc(C(=O)NCc3ccccc3Cl)ccc2Sc2ccc(Cl)cc21
16	-1.7	Cc1ccccc1-c1c(C(F)(F)F)oc2c(C)c(O)ccc2c1=O
17	0.41	O=C(O)c1ccc(NC(=O)c2ccccc2)cc1
18	-0.86	COc1cc(OC)cc(C(=O)c2ccc(C(=O)Nc3cc(C(C)C)c(O)cc3C)cc2)c1
19	-0.77	Clc1ccc(-n2cccc2)cc1
20	-2.2	Cc1cc(C)c2c(=O)[nH]c(SCC(=O)N3CCCCC3)nc2n1
21	1.1	COC(=O)C1C(=O)C2=C(CC1C)NC(C)=C(C(=O)OC(C)C)C2c1ccc(Cl)c([N+](=O)[O-])c1 (stereo not drawn)
22	0.63	COc1ccc(Cl)cc1NC(=O)CSc1nnc(COc2ccc3c(c2)CCCC3)o1
23	-0.18	Cc1ccc(C2=CC(c3cccc(C)c3)n3nnnc3N2)cc1 (stereo not drawn)
24	-0.35	O=C(NCCCN1CCN(c2ccccc2F)CC1)C1CCN(S(=O)(=O)c2cccs2)CC1
25	-0.15	CN(C)c1ccc(C2OC(=O)C(C)(C)C(=O)C2(C)C)cc1 (stereo not drawn)
26	-0.25	O=C1CSC(c2ccc([N+](=O)[O-])cc2)N1c1ccccc1 (stereo not drawn)
27	0.51	NC(=O)CSC1=Nc2ccccc2C2=NC(CCC(=O)NCc3ccc(F)cc3)C(=O)N12 (stereo not drawn)
28	-0.48	C=CCOC(=O)C1=C(C)NC2=C(C(=O)CC(C)(C)C2)C1c1ccccc1OCCCC (stereo not drawn)
29	-0.32	CCc1ccc(NC(=O)CSc2nc3c(c(-c4ccco4)c2C#N)CCCC3)cc1
30	-0.57	COc1ccc(C2C(=O)N(C3CCCC3)CC(=O)N2CCC2=CCCCC2)cc1 (stereo not drawn)
31	-0.47	Cc1nnc(NC(=O)c2c(C(=O)O)cccc2[N+](=O)[O-])s1
32	-0.33	Cc1ccc(NC(=O)CSc2n[nH]c(C)c2[N+](=O)[O-])cc1C
33	0.16	COc1ccc(S(=O)(=O)N2CCC(C(=O)Nc3ccc(OC)cc3OC)CC2)cc1
34	-0.2	O=C(CCC1CCCCC1)Nc1c2c(nn1-c1ccc(F)cc1)CSC2
35	0.54	CCC(=O)Nc1sc2c(c1C(=O)Nc1ccc(OC)cc1)CCCC2
36	-0.51	COCCOC(=O)C1=C(C)NC2=C(C(=O)C(C(=O)OC)C(C)C2)C1c1cccc(Br)c1 (stereo not drawn)
37	-1.1	CCOc1ccccc1NC(=O)CSC1=Nc2ccccc2C2=NC(c3ccccc3)C(=O)N12 (stereo not drawn)
38	3.5	CC(=O)Oc1ccc2cc(-c3nc(-c4cccs4)cs3)c(=O)oc2c1
39	1.3	CS(=O)(=O)c1ccc2nc(NC(=O)c3cccc(Cl)c3)sc2c1
40	-0.11	CCOCCn1c(SCc2ccc(Cl)cc2)nc2c1c(=O)[nH]c(=O)n2C

In the list so far, two contain a furan ring, fused or not:
item	Measles inh	Compound
3	-0.24	COc1ccc(C2=NN(c3nc(-c4ccc(OC)c(F)c4)cs3)C(c3ccco3)C2)cc1 (stereo not drawn)
29	-0.32	CCc1ccc(NC(=O)CSc2nc3c(c(-c4ccco4)c2C#N)CCCC3)cc1

(list continues)
item	Measles inh	Compound
41	-0.1	CC1(C)CC(=O)c2cc(C(=O)Nc3ccc(S(N)(=O)=O)cc3)c(=O)n(-c3ccccc3)c2C1
42	0.85	COc1cc2c(cc1OC)C(C(=O)N1CCN(c3ccccc3F)CC1)C(c1ccccc1F)N(C)C2=O (stereo not drawn)
43	0.18	COc1ccccc1C1NC(=O)NC(C)=C1C(=O)OCCC(C)C (stereo not drawn)
44	-0.58	CCN1C(=O)C(C(O)c2cc(OC)ccc2OC)SC1=Nc1ccc(C(=O)OC)cc1 (stereo not drawn)
45	0.74	O=C(CCN1C(=O)c2ccc([N+](=O)[O-])cc2C1=O)Nc1cccc(O)c1
46	-0.57	CCOC(=O)c1ccc2c(c1)C(=O)N(c1ccc(Oc3ccccc3C)cc1)C2=O
47	-1.4	CCCN1CCN(C(=O)CN2C(=O)CSc3ccc(S(=O)(=O)N4CCC(C)CC4)cc32)CC1
48	-0.46	COc1ccc(Nc2c(-c3ccc(N(C)C)cc3)nc3cnccn23)cc1
49	0.99	O=C(NCCc1ccccc1)C1c2ccccc2Oc2ccccc21
50	0.52	Cc1ccn2c(NC(=O)C3CCCCC3)c(-c3ccc(F)cc3)nc2c1
51	-0.93	O=C(O)c1cccc(N2C(=O)c3ccc(C(=O)c4ccc5c(c4)C(=O)N(c4cccc(C(=O)O)c4)C5=O)cc3C2=O)c1
52	-0.43	CCCN=C(NS(=O)(=O)c1ccc(C)cc1)c1ccc(Cl)cc1
53	-0.67	CCOC(=O)c1cc2c(=O)n3ccccc3nc2n(C(C)C)c1=NC(=O)c1ccc(C(F)(F)F)cc1
54	0.67	c1ccc2c(c1)nc1nc3no[nH]c3nc12
55	1.8	Cc1ccc(C2C3=C(CC(C)(C)CC3=O)N(Cc3ccc4c(c3)OCO4)C3=C2C(=O)CC(C)(C)C3)cc1
56	0.21	COC(=O)c1ccc(NC(=O)C(=O)c2c(-c3ccccc3)cc3ccccn23)cc1
57	1.2	CC1CC(C)CN(S(=O)(=O)c2ccc3[nH]cc(C(=O)N(Cc4ccco4)CC4CCCO4)c(=O)c3c2)C1 (stereo not drawn)
58	-0.36	COCCOC(=O)C1=C(C)NC2=C(C(=O)CCC2)C1c1ccsc1 (stereo not drawn)
59	0.46	Cc1ccnc(NC(c2ccncc2)c2ccc3ccc(C)nc3c2O)c1 (stereo not drawn)
60	0.73	COc1ccc(C2C3=C(CCCC3=O)Nc3ccccc3N2C(C)=O)cc1OC (stereo not drawn)
61	-1.5	O=C(NC1CCCCC1)c1ccc(CSc2ccc(Cl)cc2)cc1
62	-0.17	COC(=O)c1ccc(C2C(C(=O)OC3CCCCC3)=C(C)NC3=C2C(=O)CC(C)(C)C3)cc1 (stereo not drawn)
63	0.38	O=[N+]([O-])c1c(Nc2ccccc2)ccc2nonc12
64	0.04	Cc1ccc(S(=O)(=O)c2nc(C(C)(C)C)oc2NCc2ccccc2)cc1
65	1.8	N#Cc1c2c(c(N3CCN(Cc4ccc(F)cc4)CC3)n3c1nc1ccccc13)CCC2
66	-0.41	COc1cc2c(=O)n(CC3CCCO3)c(=O)n(CC(=O)Nc3cccc(Cl)c3)c2cc1OC (stereo not drawn)
67	-0.41	COc1ccc(-n2nc3c(c2NC(=O)c2cccs2)CS(=O)C3)cc1 (stereo not drawn)
68	-0.14	COc1ccc(OC)c(C2SCCN2S(=O)(=O)c2ccc(-c3ccccc3)cc2)c1 (stereo not drawn)
69	0.47	CCOC(=O)c1c(N)sc(C(=O)Nc2cccc(Cl)c2C)c1C
70	-0.82	CC(C)Cc1ccc(-c2cc(=O)[nH][nH]2)cc1
71	0.23	CC1=CC(C)(C)NC(=S)N1c1ccccc1S
72	1.4	Cc1cc(Br)ccc1N1C(=O)C2CCCCC2C1=O (stereo not drawn)
73	0.68	O=C(Cn1ncc2c(=O)oc3ccccc3c21)Nc1ccccc1F
74	-0.24	Cc1ccc(N=C2C(=O)Nc3ccc([N+](=O)[O-])cc32)c(C)c1
75	0.68	O=C1CSC(c2ccc(OC(F)F)cc2)N1c1ccc(Br)cc1 (stereo not drawn)
76	-0.07	O=c1oc2cc(OCc3ccc(Cl)cc3)ccc2c2c1CCC2
77	-1.7	O=c1nc(N2CCCCC2)ccn1-c1nc(-c2ccccc2)sc1-c1ccccc1
78	1.6	CCOC(=O)Cc1csc(Nc2c(C)n(C)n(-c3ccccc3)c2=O)n1
79	-1.2	COc1ccccc1C1NC(=O)NC(C)=C1C(=O)Nc1ccc(C)c(Cl)c1 (stereo not drawn)
80	-0.34	CCOC(=O)C(C(=O)Nc1ccccn1)C1CCCCC1 (stereo not drawn)
81	0.17	CCOC(=O)c1cc2c(=O)n3ccccc3nc2n(C)c1=NC(=O)c1ccco1
82	0.12	CC(=O)c1ccc(NC(=O)c2oc(=O)c3ccccc3c2-c2ccccc2)cc1
83	5.3	CCOc1ccc(N2C(=O)c3cc([N+](=O)[O-])cc4cc([N+](=O)[O-])cc(c34)C2=O)cc1
84	0.3	Cc1cccc(N2CCN(C(=O)c3ccc4nc5ccc(Cl)cc5c(=O)n4c3)CC2C)c1 (stereo not drawn)
85	0.37	Cc1ccc(-n2cc(-c3ccccc3)c3c(N4CC(C)OC(C)C4)ncnc32)cc1 (stereo not drawn)
86	-0.23	COc1ccc(C(=O)Nc2nnc(C(F)(F)F)s2)cc1
87	-0.92	O=C1c2ccc(Oc3ccc([N+](=O)[O-])cc3)cc2C(=O)N1c1ccc2c(c1)OCO2
88	0.25	O=C(Oc1ccc(S(=O)(=O)c2ccc(OC(=O)c3cccs3)cc2)cc1)c1cccs1
89	-0.57	CC(=O)c1cccc(Nc2nc(-c3cc4c(ccc5ccccc54)oc3=O)cs2)c1
90	1.7	Nc1nc(SCCc2ccccc2)nc2sc3c(c12)CCCC3
91	1.7	CCOC(=O)c1c(NC(=O)C2c3ccccc3Oc3ccccc32)sc(C(C)=O)c1C
92	-1.9	CCSc1nnc2c(n1)OC(c1ccc(C)s1)N(C(C)=O)c1ccccc1-2 (stereo not drawn)
93	1.4	CCOC(=O)c1cnc2c(ccc3ccccc32)c1NCCOC(=O)c1cccnc1
94	-0.03	COCCCNc1ncnc(N)c1[N+](=O)[O-]
95	-2	COc1ccc([N+](=O)[O-])cc1Cn1cc(F)c(=O)[nH]c1=O
96	0.06	O=[N+]([O-])c1c(Cl)ncnc1N1CCCCCC1
97	0.91	CCCN1Cc2cccc(C(=O)Nc3ccc(OCC)cc3)c2C1=O
98	-0.15	CCOC(=O)c1ccc(Nc2nnc(-c3cc4ccc(OC)cc4oc3=O)s2)cc1
99	0.5	CC1CCc2c(sc(NC(=O)c3cccc(S(=O)(=O)N4CCCCC4)c3)c2C#N)C1 (stereo not drawn)
100	-0.57	COc1cccc(NC(=O)C(=O)NCCc2ccccc2)c1

Entries listed so far with an NH in an aromatic ring (7):
item	Measles inh	Compound
20	-2.2	Cc1cc(C)c2c(=O)[nH]c(SCC(=O)N3CCCCC3)nc2n1
32	-0.33	Cc1ccc(NC(=O)CSc2n[nH]c(C)c2[N+](=O)[O-])cc1C
40	-0.11	CCOCCn1c(SCc2ccc(Cl)cc2)nc2c1c(=O)[nH]c(=O)n2C
54	0.67	c1ccc2c(c1)nc1nc3no[nH]c3nc12
57	1.2	CC1CC(C)CN(S(=O)(=O)c2ccc3[nH]cc(C(=O)N(Cc4ccco4)CC4CCCO4)c(=O)c3c2)C1 (stereo not drawn)
70	-0.82	CC(C)Cc1ccc(-c2cc(=O)[nH][nH]2)cc1
95	-2	COc1ccc([N+](=O)[O-])cc1Cn1cc(F)c(=O)[nH]c1=O

Remaining list, next part:
item	Measles inh	Compound
101	-0.11	CC(C)OC(=O)c1cc2cc(Br)ccc2oc1=O
102	-0.29	Cc1cc(Nc2cccc(F)c2)nc(NCc2ccccc2)n1
103	1.6	O=C(c1ccc([N+](=O)[O-])cc1)N(Cc1ccc(Br)cc1)c1ccc(I)cc1
104	0.4	COc1ccc(S(=O)(=O)NCC2CCC(C(=O)N3CCOCC3)CC2)cc1 (stereo not drawn)
105	-0.17	Cc1ccc(OCCn2cnc3c(N)ncnc32)cc1
106	-1.6	Cc1ccc(C)c(N2CCN(C(=O)c3ccc(S(=O)(=O)c4ccc(Br)cc4)c([N+](=O)[O-])c3)CC2)c1
107	-0.67	Cc1ccc(C(=O)Oc2cc(N)n(S(=O)(=O)c3ccccc3)n2)cc1
108	1.8	Cc1cc(NC(=O)c2ccc(C)c([N+](=O)[O-])c2)ccc1NC(=O)c1ccccc1
109	-0.29	CCn1nccc1C(=O)N(C)C12CC3CC(CC(C3)C1)C2
110	-0.6	CC(C)CCNC(=O)c1ccc(Cn2c(=S)[nH]c3cc4c(cc3c2=O)OCO4)cc1
111	0.49	CN1CCC2(CC1)NC(=O)NC2=O
112	-1.2	Cc1ccc(N=C2N=C(N)c3ccccc32)cc1Cl
113	-0.03	CCOC(=O)c1ccccc1N1C(=O)C2C3C=CC(C3=C(C)C)C2C1=O (stereo not drawn)
114	-0.18	COc1ccccc1Cn1c(SC)nc2ccc(Br)cc2c1=O
115	0.11	CN(C)c1ccc(N2C(=O)C=CC2=O)cc1
116	2.2	CCN1CCCc2cc(CN(CCN3CCOCC3)C(=O)Nc3ccc(C)c(C)c3)ccc21
117	-0.6	CCN1CCCC1CNS(=O)(=O)c1cc(Br)cc2c1N(C(=O)C1CC1)CC2 (stereo not drawn)
118	-0.47	Fc1ccc(CNc2ncnc3c2c(-c2ccccc2)cn3-c2ccc(Br)cc2)cc1
119	-0.51	Cc1cc(-n2nc(C)c3c2CCC3)nc(C)n1
120	-0.21	Cc1sc2c(c1C)c(=O)n(Cc1ccccc1)c(=O)n2CC(=O)c1ccccc1

Assay outcomes from PubChem BioAssay.

This is a subset; the hit share may differ from the screen's.
